E coli growth: E. coli growth inhibition, primary screen, OD600. Escherichia coli growth, 23 h; active compounds read low. OD600 absorbance (test concentration not listed). hit rate 0.21% among 330,000. AID 1053175, 2014;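 active = OD600 absorbance below the run mean of sample wells minus 3.6 SD, in any replicate, cut at about 0.56 in these data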;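 note: stock transfer was 300 nL into about 60 µL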
FGF22 binding: binders of human FGF22 protein, primary screen, FGF22 synaptogenesis inhibitor project, biophysical, thermal shift, single point | calls only at 9.99 µM | Fibroblast growth factor 22 (Homo sapiens), Q9HCT0 | recombinant FGF22 thermal shift, SYPRO orange fluorescence; percent of sucrose octasulfate shift, DMSO zero | hit rate 1.5% among 340,000;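 active = melting point raised past a set limit in the mean and every replicate; three in four hits are not shown here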
Target sequence (Q9HCT0 whole entry, looked up): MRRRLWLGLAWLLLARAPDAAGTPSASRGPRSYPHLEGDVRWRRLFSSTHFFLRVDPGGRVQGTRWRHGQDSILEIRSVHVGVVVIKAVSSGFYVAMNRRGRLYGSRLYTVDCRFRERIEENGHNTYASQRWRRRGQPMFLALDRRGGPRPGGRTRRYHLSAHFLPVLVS
Beta2AR agonist: beta2AR agonists driving receptor internalization, primary screen, cell-based, FAP fluorogen, flow cytometry; Am2.2-beta2AR cells; reference of the scale not given here; response, % (no concentration beside the values); hit rate 0.43% among 340,000;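 active = response above a set limit, near 3 SD of response in nonfluorescent compounds, cut at about 42% in these data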;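 note: stock transfer was 100 nL into about 11 µL; a reference agonist was the positive control; negative values mostly stem from fluorescent compounds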
Target sequence (P07550 whole entry, looked up): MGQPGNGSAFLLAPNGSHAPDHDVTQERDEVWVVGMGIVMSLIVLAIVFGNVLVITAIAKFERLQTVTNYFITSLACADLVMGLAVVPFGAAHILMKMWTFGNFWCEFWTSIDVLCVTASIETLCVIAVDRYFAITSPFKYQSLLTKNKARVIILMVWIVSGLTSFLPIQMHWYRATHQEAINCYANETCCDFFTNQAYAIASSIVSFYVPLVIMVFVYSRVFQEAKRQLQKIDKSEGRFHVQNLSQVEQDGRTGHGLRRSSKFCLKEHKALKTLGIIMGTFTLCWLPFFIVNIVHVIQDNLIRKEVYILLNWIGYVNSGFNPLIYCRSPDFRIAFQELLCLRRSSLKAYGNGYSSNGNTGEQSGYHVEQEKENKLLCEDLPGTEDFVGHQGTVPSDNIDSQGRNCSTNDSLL
ALR inh: inhibitors of human ALR sulfhydryl oxidase, primary screen, biochemical, H2O2 detection, HRP-luminol luminescence, single point | inhibition, % (test concentration not listed) | purified ALR, DTT oxidation | FAD-linked sulfhydryl oxidase ALR (Homo sapiens), P55789 | hit rate 3.8% among 290,000;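 active = mean and each replicate at 75% or more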;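 note: stock transfer was 7.5 nL into about 7.5 µL; 0% = neutral wells and 100% = wells with inactivated enzyme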
HNF4A DNA FP: change in binding of human HNF4A to DNA, primary screen, biochemical, fluorescence polarization, FITC-DNA; 1 h; activity change, % at 10 µM; hit rate 0.3% among 360,000; AID 1224865, 2016; in the data active = activity change above about 30%, passing the limit was not always enough;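 note: controls were the assay level and a saturating level of protein; the project sought stronger binding though the title names inhibitors; some compounds called inactive have numbers as strong as hits; positive values seem to mean higher polarization but the record does not say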
UCH37 inh: inhibitors of human UCH37 deubiquitinase, primary screen, biochemical, Ub-AMC cleavage, fluorescence. Ubiquitin carboxyl-terminal hydrolase isozyme L5 (Homo sapiens), Q9Y5K5. purified proteasome/UCH37. inhibition, % (test concentration not listed). hit rate 0.33% among 330,000. AID 588478, 2011;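 active = mean of two replicates above 20%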;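 note: 0% = compound-free wells with enzyme and 100% = wells lacking proteasome; stock transfer was 100 nL into about 20 µL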
Target sequence (Q9Y5K5 whole entry, looked up): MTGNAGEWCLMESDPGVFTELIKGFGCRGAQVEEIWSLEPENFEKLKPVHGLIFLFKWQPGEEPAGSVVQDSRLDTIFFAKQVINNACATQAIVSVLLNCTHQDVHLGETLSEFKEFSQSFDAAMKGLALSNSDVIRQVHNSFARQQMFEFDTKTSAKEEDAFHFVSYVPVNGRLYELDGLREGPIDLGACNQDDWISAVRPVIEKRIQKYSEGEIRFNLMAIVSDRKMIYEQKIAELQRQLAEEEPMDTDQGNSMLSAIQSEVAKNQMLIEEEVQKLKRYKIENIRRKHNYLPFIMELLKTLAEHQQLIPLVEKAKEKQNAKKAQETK
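Signal – fluorescence, ex 355 nm, em 460 nm · System – Proteasome-bound UCH37 · Input – 0.15 nM proteasome as dispensed · Timing – 30 min preincubation with enzyme, 25 min cleavage at room temperature · Read-out basis – percent inhibition of cleavage signal versus uninhibited and no-proteasome wells · Medium – Tris-HCl pH 7.4 with ATP-MgCl2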
LANA-H2A inh: blockers of LANA interaction with H2A/H2B – biochemical, FP readout, HTS, primary screen | Protein LANA1 (Human herpesvirus 8 type P (isolate GK18)), Q9QR71 | cell-free LANA-H2A/H2B peptide, fluorescence polarization | inhibition, % (concentration not given with the values) | hit rate 0.6% among 320,000 | AID 2629, 2010; in the data active = inhibition mostly above about 10%, no sharp cut-off; inactive = mostly below about 6.7%;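 note: stock transfer was 7.5 nL into about 10 µL; 0% = median of vehicle wells and 100% = median of positive control wells; one replicate is shown; the record names a cut of 25% in any replicate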
Active calls of the source: *; i = inactive; / = not tested or not shown; + = active, no number; & = joins results of further samples. Not all compounds are listed; count on the stated rates, not on these rows.

SMILES	E coli growth	FGF22 binding	Beta2AR agonist	ALR inh	HNF4A DNA FP	UCH37 inh	LANA-H2A inh
Cc1ccc(N2C(=O)N(CC(=O)Nc3ccccc3C(F)(F)F)C(=O)C2C)cc1 (stereo unspecified)	0.694	i	6.6	/	-0.6	0.7	-3.6
CCCCn1c(N)c(N(CCOC)C(=O)c2cc(S(=O)(=O)N3CCCCC3)ccc2C)c(=O)[nH]c1=O	0.617	i	8.8	3.2	4.2	0.4	-4.7
CCc1c(C)nc2cc(-c3ccc(Cl)cc3)[nH]n2c1=O	/	i	13.1	25.1	-0.8	/	-1.5
CN(Cc1ccccc1)C(=O)c1cc2cc(F)ccc2[nH]1	0.702	i	-1.3	-6.0	-2.8	0.1	4.2
Cc1c(C(=O)N2CCCc3ccccc32)sc2nc(-c3ccccc3)cn12	0.765	i	2.2	/	5.8	2.9	-3.5
Cc1ccc(NC(=S)NCCc2ccc(S(N)(=O)=O)cc2)c(C)c1	0.765	/	2.0	2.9	-0.5	0.5	3.3
COc1ccccc1NC(=O)c1ccc(-c2ccccc2F)o1	0.717	i	7.9	-3.3	0.2	2.3	0.3
Cc1ccc(S(=O)(=O)N2CC=C(C(=O)NC3CCCC3)CC2)cc1	0.694	i	-3.1	1.2	4.7	-0.2	-1.7
C=C(C)c1cccc(C(C)(C)NC(=O)N2CCCC(C(N)=O)C2)c1 (stereo unspecified)	0.736	/	-10.1	/	-0.5	3.8	0.1
Cc1ccc(S(=O)(=O)N2[C@@H](c3cccc(Cl)c3)C(C(=O)O)=CC[C@H]2c2cccc(C)c2)cc1	/	i	5.0	19.7	-2.4	4.3	-6.4
COc1ccc(C2CC(c3cccs3)=NN2C(=O)c2ccc(Br)o2)cc1 (stereo unspecified)	0.75	/	-25.9	-4.7	-0.4	-15.6	1.3
OCC(CBr)(CBr)CBr	0.659	i	0.8	36.7	-4.9	-1.1	0.7
C=CCc1ccc(OCCN2CCc3ccccc3C2)c(OC)c1	0.732	i	7.4	-4.3	2.9	-0.2	-0.7
Cc1cc(NC(=O)C2CC2)ncc1NC(=O)C12CC3CC(CC(C3)C1)C2	0.737	/	4.9	-2.5	1.1	5.4	-2.7
C/C(CC(=O)Nc1cc(C)cc(C)c1)=N\NC(=O)c1ccccn1	/	i	2.3	0.0	-5.3	/	2.2
COc1ccc(NC(=O)COc2ccccc2Cc2ccccc2)cn1	0.674	i	-8.0	-23.1	-1.1	4.0	0.4
Cc1nc(-c2ccccc2)sc1-c1nc(-c2ccccc2)ncc1S(=O)(=O)c1ccccc1	0.788	/	-2.2	-0.7	2.2	-14.8	-1.3
COc1ccc(C(=O)Cn2cnc3ccccc3c2=O)cc1OC	0.706	i	1.6	3.1	-0.3	2.5	-4.9
CN(CCn1ccnc1)Cc1cn(Cc2ccccc2)nc1-c1ccc2c(c1)OCO2	0.708	i	8.2	-0.1	-3.5	3.7	1.8
COC(=O)c1ccc(CSc2nc(C(F)(F)F)c3c(c2C#N)CCC3)o1	0.743	/	8.9	98.0*	3.7	-0.8	4.9
CCOC(=O)C(=Cc1cc(=O)c(OC)co1)C(=O)OCC	0.681	i	15.3	/	-0.9	2.5	/
Cc1ccc(S(=O)(=O)Nc2cc(S(=O)(=O)N3CCCCC3)ccc2N2CCOCC2)cc1	0.65	i	8.6	-6.9	-0.8	3.1	7.7
COc1ccc(NCc2nnc(SCc3ccccc3)n2-c2ccc(OC)cc2)cc1	0.699	/	-1.8	91.9*	0.6	0.4	-3.3
COc1ccc(CNC(=O)c2ccc(CS(=O)Cc3cccc(Cl)c3)o2)cc1 (stereo unspecified)	0.67	i	0.1	59.6	1.3	0.3	1.1

2 consecutive records from above:
SMILES	E coli growth	FGF22 binding	Beta2AR agonist	ALR inh	HNF4A DNA FP	UCH37 inh	LANA-H2A inh
C=CCc1ccc(OCCN2CCc3ccccc3C2)c(OC)c1	0.732	i	7.4	-4.3	2.9	-0.2	-0.7
Cc1cc(NC(=O)C2CC2)ncc1NC(=O)C12CC3CC(CC(C3)C1)C2	0.737	/	4.9	-2.5	1.1	5.4	-2.7

Later entries:
SMILES	E coli growth	FGF22 binding	Beta2AR agonist	ALR inh	HNF4A DNA FP	UCH37 inh	LANA-H2A inh
CCC(C)(C)NC(=O)c1ccc(S(=O)(=O)N2CCCCCC2)cc1	0.689	i	2.1	/	-4.1	0.8	-1.6
O=c1oc2ccccc2c(NCc2ccccc2)c1[N+](=O)[O-]	0.689	i	1.2	5.9	1.2	6.1	-8.5
CCN1CCN(C(=O)/C=C/c2ccc(C)cc2)CC1	0.732	i	3.6	-1.4	3.3	1.3	-8.2
O=C(Nc1cccc(S(=O)(=O)N2CCCCCC2)c1)c1ccc(=O)[nH]c1	0.673	i	2.4	1.6	-1.4	0.6	0.6
O=C(c1ccc(F)cc1)C1CCN(C(=O)Nc2ccc(F)cc2)CC1	0.721	/	7.3	0.7	-1.1	2.7	2.3
O=C(NCCCN1CCOCC1)c1ccc(Sc2cccc(Cl)c2)c([N+](=O)[O-])c1	0.662	/	8.8	-9.1	4.3	2.4	-1.2
C=CCSc1nc2c(c(=O)n(C)c(=O)n2C)n1CC	0.643	i	3.8	/	6.1	3.6	1.4
Cc1cc(C)c(C#N)c(Nc2ccc3c(c2)OCCO3)n1	0.726	i	-0.9	-16.3	7.4	-20.8	0.8
CNc1ccc(C(=O)OCC(=O)NC(=O)NC2CCCC2)cc1[N+](=O)[O-]	0.716	i	-7.4	3.2	1.5	4.4	-2.3
Cc1cc(Br)ccc1NC(=O)CN(C)C(=O)c1ccc2ccccc2n1	0.627	i	7.0	-0.1	-1.4	-0.7	-6.0
CC1CCc2cc(F)ccc2N1C(=O)CSc1nnc2c3ccccc3n(C)c2n1 (stereo unspecified)	0.679	i	-14.6	14.4	-5.6	-0.2	1.3
CCCC1(c2ccccc2)NC(=O)N(CC(=O)Nc2ccc(N3CCOCC3)cc2)C1=O (stereo unspecified)	0.705	i	0.6	12.2	-2.5	2.3	-0.1
COc1cc(OC)cc(-c2c(-c3ccc(F)cc3)c3cc(-c4ccc(OC)nc4)ccc3n2C)c1	0.666	i	-0.8	4.7	-1.0	-16.7	0.5
O=C(COc1ccc(S(=O)(=O)NC2CCCCC2)cc1Cl)NCC1CCCO1 (stereo unspecified)	0.707	/	-13.6	1.5	-1.4	-2.9	1.8
Cc1ccc(NC(=O)CSCC(=O)OC(C)C(=O)Nc2ccccc2C)cc1 (stereo unspecified)	0.687	i	2.9	/	-6.3	4.2	/
COc1ccc(C)cc1NC(=O)CSc1ccc(-c2ccccn2)nn1	0.654	i	-1.9	-5.4	0.0	4.2	-2.2
COc1ccc(CCNCC(O)COc2ccc(Cl)cc2)cc1OC (stereo unspecified)	0.685	i	-4.3	-4.2	2.8	2.1	4.1
CCC(=O)Nc1nn(CC(C)C)c2nc3ccc(C)cc3cc12	0.674	i	-1.9	-0.6	-0.6	-363.3	3.6
COc1ccc(-n2c(C)nnc2SCC(=O)N2CCOCC2)cc1	0.68	i	0.3	-6.9	-1.7	1.3	-0.8
Cc1ccc2nc(C)c3c(c2c1)SCC3	0.631	i	3.8	3.9	-1.4	-21.2	3.6
O=C(NNC(=O)C1CC(c2cccnc2)=NO1)Nc1ccccc1F (stereo unspecified)	0.697	i	-0.5	3.6	1.3	-2.0	0.5
COc1ccc(OC)c(N2C(=O)CCCC2=O)c1	0.654	i	-1.2	-5.7	-0.6	-0.1	-12.6
NC(=O)C1CCN(CC(=O)NC2CCCc3ccccc32)CC1 (stereo unspecified)	0.662	/	3.4	-3.5	8.9	1.3	-1.4
COc1ccc(CCNC(=S)NCCc2c[nH]c3ccccc23)cc1	0.718	+	7.7	-3.1	-0.4	2.9	2.0
CSc1sccc1/C=C(/C#N)C(=O)c1ccco1	0.632	i	5.9	6.7	-4.4	3.5	-1.7
CC1CCN(C(=O)Nc2ccc3nsnc3c2)CC1	0.667	/	-4.8	-22.6	1.2	-49.9	-3.7
O=C(O)C1Cc2ccccc2CN1C(=O)CSc1nnc2ccccn12 (stereo unspecified)	0.711	i	-3.6	3.6	1.4	-1.0	-0.9
COCCN(C(=O)COC(=O)CCc1c[nH]c2ccccc12)c1c(N)n(Cc2ccccc2)c(=O)[nH]c1=O	0.674	i	-7.7	22.7	-2.3	1.1	-0.8
COc1ccc(NC(=O)c2ccc(NC(=O)CN3CCC(C(N)=O)CC3)cc2)cc1	0.698	i	4.7	/	7.1	5.4	-2.3
O=S(=O)(CCNCCc1ccccc1)NC1CCCCC1	/	i	-3.2	/	-1.0	/	/
CC(C)c1ccc(NC(=O)c2cc(Br)ccc2Br)cc1	0.661	i	16.6	1.5	-2.4	-4.4	2.5
NC(=S)N/N=C/c1cccc(O)c1O	/	i	-1.4	98.2*	3.4	/	-0.2
CC1CCCN(S(=O)(=O)c2ccc(NC(=O)C3CC(=O)N(c4ccccc4)C3)cc2)C1 (stereo unspecified)	0.644	i	-0.7	-11.9	3.0	0.5	1.1
COc1ccccc1NC(=O)CCN1C(=O)C2C3CCC(C3)C2C1=O (stereo unspecified)	0.639	i	5.8	-4.3	-1.0	1.3	-3.9
O=C(Nc1cccc(C(F)(F)F)c1)c1cccnc1N1CCOCC1	0.694	i	-4.0	2.9	-3.7	4.0	2.0
CC(C)c1ccc(NC(=O)COc2ccccc2)cc1	0.634	i	-8.4	-36.1	-1.9	2.4	0.8
COc1ccc(C(=O)/C=C2/c3ccccc3CC(C)(C)N2C)cc1	0.695	/	16.4	-5.6	5.1	7.7	3.4
Cc1cc(=O)cc(C)n1-c1ccc2c(c1)nc(C)n2-c1ccccc1	0.68	i	-14.4	2.4	-2.6	1.3	-1.7
Cc1cc2cc(CNC(=O)Cc3cccs3)ccc2n1C	0.736	/	5.3	-4.2	-6.2	1.6	4.0
CC(C)c1onc(C(=O)NC2CCCCC2)c1[N+](=O)[O-]	0.71	i	-17.3	-1.3	-0.4	1.6	-8.0
COc1ccc(C2=NOC(C(=O)NCC(C)C)C2)cc1 (stereo unspecified)	0.72	/	-0.7	-3.1	-4.2	1.4	0.4
COC(=O)C1=C(C)N=C2SC(C)C(=O)N2C1/C=C/c1ccccc1OC (stereo unspecified)	0.703	/	2.6	-0.2	2.3	5.3	-2.2
CCOC(=O)C1CCN(c2nc(N)c3c(N)nc(SCC(=O)O)cc3c2C#N)CC1	0.653	i	36.8	/	-27.4	-107.6	/
CCN1CCN(c2ncnc3c2cnn3-c2ccccc2)CC1	0.706	i	-4.9	-10.2	2.0	4.7	4.2
CCOc1ccc(OCC)c(NC(=O)C2CCN(c3nn4c(=O)cc(C)nc4s3)CC2)c1	0.716	/	2.6	-22.3	1.5	23.2*	3.7
Cc1cc(C(=O)O/N=C(\N)c2ccncc2)ccc1[N+](=O)[O-]	0.587	+	6.4	-0.6	4.3	3.6	-8.1
CC(=O)NCCC(=O)Nc1ccc(C)c(F)c1	0.727	/	0.5	/	-2.4	1.2	0.0
CCOc1cc(C(N)=O)cc(Br)c1OCc1ccccc1	0.701	i	2.1	/	2.8	5.9	-3.4
COc1cc(OC)c(C2C(C#N)=C(N)OC3=C2C(=O)CC(C)(C)C3)cc1OC (stereo unspecified)	0.72	/	-7.1	-20.4	0.4	5.7	-2.9&1.9
CN(C)S(=O)(=O)c1ccc(C(=O)Nc2nc3ccccc3[nH]2)cc1	0.716	i	1.4	-8.8	-2.5	-69.7	-1.7
CC(C)(CO)NC(=O)c1ccc2c(c1)C(=O)c1ccccc1-2	0.676	i	-16.4	-7.4	0.8	2.2	10.9
COC(=O)c1nc(NC(=O)c2ccccc2Br)n[nH]1	0.717	i	14.5	/	4.0	0.2	/

Source: PubChem BioAssay
